# Screening data: PubChem BioAssay, ICCB-Longwood Screening Facility, Harvard Medical School
# GIV Gai3 FP: blocks GIV peptide binding to rat Galpha-i3; P08753; Galpha-i3/FITC-GIV peptide fluorescence polarization, 90 min; stronger effect = lower value; scaled: aluminum fluoride 0%, vehicle 100%; percent of control (FP), % (concentration not given with the values); 0.42% of 210,000 active; AID 1224905;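 active = replicate mean at 85% of control or lower, very high polarization wells dropped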;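 also: wells of about 15 µL received 100 nL stock; the first replicate is given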
# Target sequence (P08753 whole entry, looked up): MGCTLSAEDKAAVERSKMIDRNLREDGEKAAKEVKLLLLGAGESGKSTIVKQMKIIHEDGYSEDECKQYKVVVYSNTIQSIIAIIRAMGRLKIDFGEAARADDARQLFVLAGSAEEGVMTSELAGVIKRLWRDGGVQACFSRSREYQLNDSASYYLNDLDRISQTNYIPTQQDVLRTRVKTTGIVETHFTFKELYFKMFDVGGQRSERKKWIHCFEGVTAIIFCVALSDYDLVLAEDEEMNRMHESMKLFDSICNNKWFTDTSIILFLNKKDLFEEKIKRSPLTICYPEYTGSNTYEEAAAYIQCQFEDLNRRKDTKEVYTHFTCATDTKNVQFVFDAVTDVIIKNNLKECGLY
# An asterisk follows results filed as active. The list is partial (hit frequency here may not be typical).
SMILES,GIV Gai3 FP
CCOC(=O)C1=C(C)NC2=C(C(=O)c3ccccc32)C1c1ccc(OCC)c(OC)c1 (configuration not stated),111
COc1ccc(-c2[nH]nc3c2C(c2cc(Cl)c(O)c(OC)c2)C(C#N)=C(N)O3)cc1 (configuration not stated),105
Cc1cc(-c2csc(S(=O)(=O)Nc3ccccc3)c2)on1,102
Clc1ccccc1-c1nn2cc(-c3ccc(Br)cc3)c3c2n1CCCC3,105
CC(C)(C)c1ccc(CN2C3=NCCN3c3ccccc32)cc1,104
CC12CC3CC1C(OC2=O)C3I (configuration not stated),110
CCOC(=O)c1sc(NC(=O)C(C)Sc2nnc(CNC(=O)c3ccc(OC)cc3)n2C)c(C(=O)OCC)c1C (configuration not stated),106
Cc1[nH]c2ccc(Cl)c3c2c1CCN1C(=O)OC(C)(C)C31C (configuration not stated),100
CCOC(=O)C1=CC2(SC=C(C(=O)OCC)S2)C2=C(S1)C(C)(C)N(C(=O)c1ccccc1)c1ccccc12 (configuration not stated),110
CN(C)c1nc2ncn3c(=O)n(CC(=O)Nc4cccc(Cl)c4F)nc3c2s1,98
CCOC(=O)c1ccc(NC(=O)CC2SC(=NC)N(C)C2=O)cc1 (configuration not stated),103
COc1ccc(Nc2nc(N(C)N)nc(C)c2[N+](=O)[O-])cc1,98
CCOC(=O)c1c(NC(=O)c2ccco2)sc2c1CCC(C#N)(c1ccccc1)C2 (configuration not stated),114
O=c1n(CCOc2ccc(F)cc2)nc2c(S(=O)(=O)N3CCCCC3)cccn12,104
O=S(=O)(NCCc1n[nH]c(Cc2cccc(F)c2)n1)c1cccc2nsnc12,109
CCCCCCOC(=O)c1ccc(-c2ccc(-c3ccc(C(=O)OCCCCCC)cc3)cc2)cc1,107
CC(C)c1cnc2c(c1SC1CCCC1)c(=O)n(C)c(=O)n2C,110
COc1ccc([C@@H]2[C@@H](C(=O)C(C)(C)C)N3c4ccccc4C=C[C@@H]3C2(C#N)C#N)cc1OC,120
Cc1cc(C)n(-c2nc3c(c(=O)n2CC(=O)N2CCCc4ccccc42)CCCC3)n1,96
Cc1noc(C)c1C1CCCN1C(=O)c1cc(-c2ccc(Br)cc2)on1 (configuration not stated),106
CN1c2ccccc2-c2ccccc2C12C=Cc1cc(N=Nc3ccccc3)ccc1O2 (configuration not stated),106
O=C(CN1CCCCC1)Nc1nnc(SCC(=O)N2c3ccccc3Sc3ccccc32)s1,115
CCOC(=O)C1=C(N)N(c2ccc(F)cc2)C2=C(C(=O)CC(C)(C)C2)C1c1ccc(OC)c(OC)c1 (configuration not stated),104
CCCN1CCN(C(=O)c2cc3sc(C)c(CN4CCCCC4)c3[nH]2)CC1,108
Cc1ccc(-c2noc3ncnc(NC4CCCCC4)c23)cc1,104
CC12CCC(C(=O)N(c3ccccc3Cl)C1=O)C2(C)C (configuration not stated),106
CCN(c1ccccc1)S(=O)(=O)c1ccc(F)c(C(=O)Nc2cccc(Cl)c2)c1,104
COc1ccc(N=C2SC(C(=O)N3CCN(c4ccccn4)CC3)CC(=O)N2C)cc1 (configuration not stated),104
O=C(NCCc1nc(-c2ccccc2)n[nH]1)Nc1ccccc1Cl,106
CN(C)c1nc2ncn3c(=O)n(CC(=O)Nc4ccc(F)c(Cl)c4)nc3c2s1,104
COC(=O)c1ccc2c(=O)n(Cc3ccc(C(=O)NCCCN4CCC(C)CC4)cc3)c(=S)[nH]c2c1,103
COc1ccc(OC)c(NC(=O)CSc2nc3ccccc3c(=O)n2NC(=O)Cc2ccccc2)c1,120
Cc1ccccc1-c1cc2n(C)c(C)c(CCC(=O)NCCN(C)C)c(=O)n2n1,108
Cc1ccsc1C(=O)NCc1ccc(S(=O)(=O)N2CCC(C)CC2)s1,103
CCOC(=O)c1nnn(-c2nonc2N)c1CN1CCCCCC1,106
c1ccc(-c2noc(CCc3nnc4ccc(N5CCN(c6ccccc6)CC5)nn34)n2)cc1,104
CCOC(=O)C(NC(=O)c1cccc(Cl)c1)(Nc1sc2c(c1C#N)CCC(C(C)(C)C)C2)C(F)(F)F (configuration not stated),101
O=C1/C(=C/c2ccc(Cl)cc2)C=C(c2ccccc2)N1c1ccccc1Br,119
Cc1cc(C)c(C#N)c(SCc2[nH]nc3c2C(c2ccc(F)cc2)C(C#N)=C(N)O3)n1 (configuration not stated),109
COc1ccc(CCNC(=O)CSc2nc3ccccc3c(=O)n2NC(=O)c2cccs2)cc1OC,107
COc1ccc(CCn2c(=S)[nH]c3cc(C(=O)N4CCN(c5ccccc5)CC4)ccc3c2=O)cc1OC,115
O=C(Nc1nccs1)c1ccc(Br)c(S(=O)(=O)N2CCOCC2)c1,102
CCOCCn1cnc2sc(C(=O)N(C)C3CCCCC3)c(C)c2c1=O,110
CCN(CC)CCCNC(=O)c1ccc2c(c1)nc1n2CCOC1,104
O=C(c1ccccc1)N1c2ccccc2N=C(c2ccccc2)CC1c1ccccc1 (configuration not stated),109
C=CCC1(O)C(=O)N2C(=C1C(=O)N1CCCC1)c1ccccc1CC2(C)C (configuration not stated),108
CCOC(=O)c1sc2ncnc(NC3CCCC(C)C3C)c2c1C (configuration not stated),113
Cc1ccc(NC(=O)CSc2nc3cc(C(=O)N4CCC(C(N)=O)CC4)ccc3c(=O)n2Cc2ccco2)cc1Cl,115
CC(C)(C)C(=O)Nc1cc(Cl)ccc1OCc1cc(=O)n2ccsc2n1,108
O=C(NCC(=O)N1CCN(c2ccccc2)CC1)c1ccccc1Br,112

# Next compounds follow:
SMILES,GIV Gai3 FP
N#CC1(C#N)C2c3ccccc3C=CN2[C@@H](C(=O)C23CC4CC(CC(C4)C2)C3)[C@@H]1c1ccc(Cl)c(Cl)c1 (some centres not stated),106
COC(=O)c1c(C)oc2ccc(N(C(C)=O)S(=O)(=O)c3cccc([N+](=O)[O-])c3)cc12,109
O=C(Nc1cc(C(F)(F)F)ccc1Cl)c1cc2cc([N+](=O)[O-])ccc2oc1=O,110
O=[N+]([O-])c1ccc(-c2ccc(-c3[nH]c(-c4ccccc4)nc3-c3ccccc3)cc2)cc1,106
Cc1cc(Br)ccc1NC(=O)c1sc2ncn(CC(=O)Nc3cccc(C(F)(F)F)c3)c(=O)c2c1C,109
O=C(CSc1nc2ccccc2c(=O)n1CC1CCC(C(=O)NCC2CCCO2)CC1)Nc1nccs1 (configuration not stated),112
Cn1c(SCCOc2ccc(Cl)cc2)nnc1-c1ccc2c(c1)OCCCO2,100
Cn1c(=O)c(N2CCN(C(=O)c3cc4ccccc4o3)CC2)nc2ccccc21,106
Cc1cccc(NS(=O)(=O)c2c(C)sc(C)c2-c2cc(C(F)(F)F)on2)c1,105
O=C(Nc1ccc(-c2nc3cc(NC(=O)c4ccccc4[N+](=O)[O-])ccc3o2)cc1)c1ccccc1[N+](=O)[O-],104
O=C(CN1C(=O)/C(=C2\SC(N3CCOCC3)=NC2=O)c2ccccc21)Nc1cccc(Cl)c1,107
O=C(C1CCN(c2cncnc2N2CCOCC2)CC1)N1CCCCC1,101
CC(C)NC(=O)c1cc2n(n1)CCCC2,99
CC1(C)CC(=O)C2=C(C1)c1c(ccc3ccccc13)NC2c1cn(Cc2ccccc2Cl)c2ccccc12 (configuration not stated),106
COc1cc(OC)c(NC(=O)CSc2nc3ccccc3n2S(=O)(=O)c2ccc(C)cc2)cc1Cl,109
CCNC(=O)N1CCCN(S(C)(=O)=O)CC1,99
CCCCCCCOC1(c2ccccc2)OC(=O)c2ccccc21 (configuration not stated),100
CC1CCN(c2ccc(C3Nc4ccc5ccccc5c4C4=C3C(=O)CC(C)(C)C4)cc2[N+](=O)[O-])CC1 (configuration not stated),106
CC(C)(C)Nc1ncnc2c1cnn2-c1cccc(Cl)c1,99
COc1ccc(-n2ncc3c(Nc4cccc(C(F)(F)F)c4)ncnc32)cc1,103
COc1cccc(C2CC(c3cccs3)=NN2C(=O)CSc2nnc(CNC(=O)c3cccc(C)c3)n2C)c1OC (configuration not stated),113
CC1CC(Nc2ccccc2)c2ccccc2N1C(=O)c1ccc(Cl)c(Cl)c1 (configuration not stated),102
COc1ccc(-c2nnc(-c3nc(NC4CCS(=O)(=O)C4)c4ccccc4n3)o2)cc1 (configuration not stated),105
CC1(C)OC2OC(C(=O)Nc3ccc(F)c(Cl)c3)C3OC(C)(C)OC3C2O1 (configuration not stated),101
Oc1ccc(Cl)cc1C1=Nc2ccccc2N=C(c2ccc(Cl)cc2)C1,99
O=c1c2c(nc3n1CC(c1ccccc1)S3)-c1ccccc1CC21CCCC1 (configuration not stated),103
COC(=O)c1c(-c2ccc(F)cc2)noc1NCCN1CCCC1,102
COC(=O)c1sccc1NC(=O)CN1CCCN(Cc2cccc(F)c2)S1(=O)=O,108
Cc1ccc2c(c1)-c1c(ssc1=S)C(C)(C)N2C,105
Cc1nc2c(C(=O)NCCCN3CCOCC3)cnn2c(C)c1Cc1ccccc1Cl,107
Cc1ccc(NC(=O)Nc2nnc(SCC(=O)N3CCOCC3)s2)cc1,99
CC(C)n1c(SCc2nc(-c3ccc(Cl)cc3)no2)nc2c(-c3ccccc3)cn(C)c2c1=O,99
O=S(=O)(c1cccn2c(SCc3ccc(F)cc3)nnc12)N1CCc2ccccc2C1,102
CCOc1ccccc1N1CCN(C(=O)C2CCN(c3ncnc4c3oc3ccccc34)CC2)CC1,109
O=C(CSc1nc2c(cnn2-c2ccc(Cl)cc2)c(=O)[nH]1)NCC1CCCO1 (configuration not stated),102
O=C1/C(=C/c2ccc(-c3cc(Cl)ccc3Cl)o2)C=C(c2ccccc2)N1c1ccccc1Br,107
CCCN(C)S(=O)(=O)c1cc(-c2nnc(C)o2)co1,107
Cc1ccc(S(=O)(=O)N2CCN(CCNC(=O)C(=O)NCc3ccccc3)CC2)cc1,102
COc1cccc(N2CCN(C(=O)CCc3nc(-c4ccc(N5CCCC5)cc4)no3)CC2)c1,104
CC(C(=O)N1CCN(c2ccccn2)CC1)C1CCN(C(=O)c2cc3cc(Cl)ccc3[nH]2)CC1 (configuration not stated),108

# Among those listed so far, 7 contain a furan ring, fused or not:
SMILES,GIV Gai3 FP
CCOC(=O)c1c(NC(=O)c2ccco2)sc2c1CCC(C#N)(c1ccccc1)C2 (configuration not stated),114
Cc1ccc(NC(=O)CSc2nc3cc(C(=O)N4CCC(C(N)=O)CC4)ccc3c(=O)n2Cc2ccco2)cc1Cl,115
COC(=O)c1c(C)oc2ccc(N(C(C)=O)S(=O)(=O)c3cccc([N+](=O)[O-])c3)cc12,109
Cn1c(=O)c(N2CCN(C(=O)c3cc4ccccc4o3)CC2)nc2ccccc21,106
CCOc1ccccc1N1CCN(C(=O)C2CCN(c3ncnc4c3oc3ccccc34)CC2)CC1,109
O=C1/C(=C/c2ccc(-c3cc(Cl)ccc3Cl)o2)C=C(c2ccccc2)N1c1ccccc1Br,107
CCCN(C)S(=O)(=O)c1cc(-c2nnc(C)o2)co1,107

# Later entries
SMILES,GIV Gai3 FP
COc1ccccc1N1C(=O)C2CCC(C)(C1=O)C2(C)C (configuration not stated),120
COc1ccc(OC)c(-c2[nH]nc3c2C2(C(=O)Nc4ccc(C)c(Br)c42)C(C#N)=C(N)O3)c1 (configuration not stated),106
CC(C)(C)Nc1nc(NCc2cccnc2)nc(N2CCOCC2)n1,99
COc1ccccc1C(=O)Oc1ccc2c(=O)c(Oc3ccccc3Br)coc2c1,101
O=C(CSc1nnc2c(=O)n(-c3cccc(F)c3)ccn12)c1c[nH]c2ccccc12,123
CCN1/C(=C/C=C/c2cc[n+](CC)c3ccccc23)C=Cc2ccccc21,103
O=S(=O)(Nc1ccc(F)cc1)c1cc(-c2noc(C3CC3)n2)cs1,100
COc1ccc(-n2ccc(=O)c(-c3nc(-c4ccccc4OCc4ccccc4)no3)n2)cc1,100
CCCCCn1c(SCc2cccc(F)c2)nc2cc(C(=O)N3CCC(C(N)=O)CC3)ccc2c1=O,106
COCc1ccc2c(c1)c1c3n2CCNC3CCC1 (configuration not stated),106

# 6 entries out of the list above, sorted by the number in GIV Gai3 FP, lowest first.
canonical_smiles | GIV Gai3 FP
CCOC(=O)C(NC(=O)c1cccc(Cl)c1)(Nc1sc2c(c1C#N)CCC(C(C)(C)C)C2)C(F)(F)F (configuration not stated) | 101
O=S(=O)(c1cccn2c(SCc3ccc(F)cc3)nnc12)N1CCc2ccccc2C1 | 102
CCOC(=O)C1=C(N)N(c2ccc(F)cc2)C2=C(C(=O)CC(C)(C)C2)C1c1ccc(OC)c(OC)c1 (configuration not stated) | 104
O=C1/C(=C/c2ccc(-c3cc(Cl)ccc3Cl)o2)C=C(c2ccccc2)N1c1ccccc1Br | 107
Cc1cc(Br)ccc1NC(=O)c1sc2ncn(CC(=O)Nc3cccc(C(F)(F)F)c3)c(=O)c2c1C | 109
O=C1/C(=C/c2ccc(Cl)cc2)C=C(c2ccccc2)N1c1ccccc1Br | 119

# Next section:
SMILES,GIV Gai3 FP
COc1ccc(CNC2=NCCNC23CCCCC3C)cc1 (configuration not stated),107
COc1ccc(C(=O)Nc2cc3c(cc2S(=O)(=O)C2CCCCC2)n(C)c(=O)c(=O)n3C)cc1,102
CCCSc1nnc(-c2ccccc2N)c(=O)[nH]1,116
COC(=O)C1=CN(Cc2ccc(F)cc2)C=C(C(=O)OC)C1c1ccc(OCc2ccccc2)cc1,103
CCCN1C(=O)NC2NC(=O)N(CCC)C21 (configuration not stated),110
O=C(NC1CC1)C1CC(=O)N(c2ccc3c(c2)CCN3C(=O)C2CC2)C1 (configuration not stated),101
CC12CN3CC(C)(CN(C1)C3c1ccccc1[N+](=O)[O-])C2=O (configuration not stated),125
Cc1c(C(=O)Nc2ccc3c(c2)OCCO3)sc2ncnc(N3CCN(c4ccccn4)CC3)c12,99
CC(=O)C1=NN(c2ccc(Cl)cc2)C(c2cccs2)N1c1ccc(Cl)cc1 (configuration not stated),102
COc1ccc(NC(=O)/C(=C/c2ccc3c(c2)OCO3)NC(=O)c2ccccc2OC)cc1,104
O=c1n(CCOc2ccc(F)cc2)nc2c(S(=O)(=O)N3CCCCCC3)cccn12,107
N#Cc1cc2c(N)c(C(=O)Nc3cccc(C(F)(F)F)c3)sc2nc1N,105
Cn1c(N2CCC(C(=O)N3CCOCC3)CC2)cc(=O)n(C)c1=O,103
O=C1CN(Cc2ccccc2)S(=O)(=O)c2ccccc2N1Cc1ccc(F)cc1,104
O=c1cc(CSc2nnc3c4ccccc4nc(-c4ccccc4)n23)nc2ccccn12,97
